# ALR inh: human ALR oxidase inhibition via reduced H2O2; P55789; purified ALR, DTT oxidation, H2O2 HRP-luminol luminescence; inhibition, % (concentration not given with the values); actives 3.8% (n = 290,000); AID 485317;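 active = mean and each replicate at 75% or more; inconclusive = only one of the two met; inactive = neither met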;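 note: stock transfer was 7.5 nL into about 7.5 µL; 0% = neutral wells and 100% = wells with inactivated enzyme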
# Target sequence (P55789 whole entry, looked up): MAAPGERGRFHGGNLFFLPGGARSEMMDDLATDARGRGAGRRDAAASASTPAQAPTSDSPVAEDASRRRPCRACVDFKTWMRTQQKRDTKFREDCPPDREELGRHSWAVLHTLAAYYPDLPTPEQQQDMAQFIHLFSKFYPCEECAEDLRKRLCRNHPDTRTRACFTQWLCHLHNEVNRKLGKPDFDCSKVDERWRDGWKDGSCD
# RanGTP-Impb inh: inhibitors of RanGTP-importin-beta interaction, primary screen, biochemical, FRET, CFP-Ran, YFP-importin-beta, homogeneous. cell-free CFP-Ran/YFP-importin-beta FRET ratio. inhibition, % (concentration not given with the values). actives 1.1% (n = 300,000);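 active = most replicates above 15%; inconclusive = exactly half above 15%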;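 note: 0% = DMSO wells and 100% = Ran loaded with GDP instead of GTP; wells of about 40 µL received 100 nL stock; the first replicate is given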
# Vif TR-FRET: HIV-1 Vif–A3G interaction blockers – biochemical, TR-FRET, GST-Vif 1-94, biotin-A3G peptide, dose response retest, primary screen (AID 1117319) | TR-FRET GST-Vif / biotin-A3G peptide binding; higher % means a stronger effect; test concentration not given here; strong numbers were not always called active | inhibition, %, or IC50 in µM where a hit was titrated | actives 0.57% (n = 260,000);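 active = above the screen mean plus three standard deviations and confirmed in dose response; inconclusive = results disagree or hit not tested in dose response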;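 note: Vif residues 1-94 fused to GST binding biotinylated APOBEC3G peptide 110-148; 0% = full assay without inhibitor and 100% = GST in place of GST-Vif; retest series ran down from 100 µM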
# Calb FLC: affects C. albicans growth with fluconazole | C. albicans CaCi-2 (fluconazole-resistant clinical isolate) + fluconazole, Alamar Blue growth, 48 h | growth inhibition, % (test concentration not listed) | actives 0.57% (n = 300,000) | AID 1979;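 active = most replicates above 75%; inconclusive = exactly half above 75%; inactive = most below 75%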;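 note: all wells also contain fluconazole at 8 µg/ml as a sub-toxic cotreatment; 0% = median of DMSO wells and 100% = median of geldanamycin control wells; wells of about 8 µL received 7.5 nL stock; the first replicate is given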
# B2AR ag: activates human beta-2 adrenergic receptor causing internalization. P07550. Am2.2-beta2AR cells, FAP receptor internalization, flow cytometry; reference of the scale not given here. response, % (test concentration not listed). actives 0.43% (n = 340,000);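 active = response above a set limit, near 3 SD of response in nonfluorescent compounds, cut at about 42% in these data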;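 note: stock transfer was 100 nL into about 11 µL; a reference agonist was the positive control; negative values mostly stem from fluorescent compounds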
# Target sequence (P07550 whole entry, looked up): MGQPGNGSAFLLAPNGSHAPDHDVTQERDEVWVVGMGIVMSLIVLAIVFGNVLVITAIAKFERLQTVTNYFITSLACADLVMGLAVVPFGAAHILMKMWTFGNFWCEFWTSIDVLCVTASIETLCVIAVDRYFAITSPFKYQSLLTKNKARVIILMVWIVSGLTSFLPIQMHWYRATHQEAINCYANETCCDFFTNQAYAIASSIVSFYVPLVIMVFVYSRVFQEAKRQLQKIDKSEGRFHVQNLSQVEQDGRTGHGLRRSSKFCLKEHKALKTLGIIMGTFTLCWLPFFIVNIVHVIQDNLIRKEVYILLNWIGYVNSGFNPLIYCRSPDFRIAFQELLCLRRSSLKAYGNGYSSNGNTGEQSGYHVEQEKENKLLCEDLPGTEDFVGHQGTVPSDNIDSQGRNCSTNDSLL
# HNF4A DNA FP: change in binding of human HNF4 alpha to DNA. AID 1224865. actives 0.3% (n = 360,000). activity change, % at 10 µM. HNF4a-FITC DNA binding, fluorescence polarization, 1 h. P41235; in the data active = activity change above about 30%, passing the limit was not always enough;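 note: controls were the assay level and a saturating level of protein; the project sought stronger binding though the title names inhibitors; some compounds called inactive have numbers as strong as hits; positive values seem to mean higher polarization but the record does not say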
# Target sequence (P41235 whole entry, looked up): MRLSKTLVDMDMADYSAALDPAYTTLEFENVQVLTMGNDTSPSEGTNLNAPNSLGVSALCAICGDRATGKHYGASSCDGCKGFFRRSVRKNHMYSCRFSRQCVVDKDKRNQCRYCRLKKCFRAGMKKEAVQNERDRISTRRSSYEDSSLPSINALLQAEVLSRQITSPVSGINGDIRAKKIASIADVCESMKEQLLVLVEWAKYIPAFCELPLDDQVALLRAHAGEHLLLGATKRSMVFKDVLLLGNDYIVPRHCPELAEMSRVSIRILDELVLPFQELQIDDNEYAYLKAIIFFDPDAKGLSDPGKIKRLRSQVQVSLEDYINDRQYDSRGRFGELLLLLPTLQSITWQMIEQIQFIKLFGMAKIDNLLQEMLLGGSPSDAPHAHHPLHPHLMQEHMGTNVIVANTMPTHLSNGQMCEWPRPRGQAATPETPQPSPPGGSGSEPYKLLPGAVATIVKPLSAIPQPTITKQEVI
# LANA-H2B inh: blocks KSHV LANA binding to histone H2A/H2B; Q9QR71; inhibition, % (test concentration not listed); AID 2629; actives 0.6% (n = 320,000); cell-free LANA-H2A/H2B peptide, fluorescence polarization; in the data active = inhibition mostly above about 10%, no sharp cut-off; inactive = mostly below about 6.7%;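 note: stock transfer was 7.5 nL into about 10 µL; 0% = median of vehicle wells and 100% = median of positive control wells; one replicate is shown; the record names a cut of 25% in any replicate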
# An asterisk follows results filed as active; u = inconclusive; x = no result given.
SMILES,ALR inh,RanGTP-Impb inh,Vif TR-FRET,Calb FLC,B2AR ag,HNF4A DNA FP,LANA-H2B inh
O=C(OCCN=C1NS(=O)(=O)c2ccccc21)C1CC(=O)N(c2ccc(Cl)cc2)C1 (stereo not given),-4,0.3,3%,-2,4,-2.0,3.4
COc1ccc2c(c1)nc(SCC(=O)c1ccc(Br)s1)n2C,-5,4.6,20%,10,-1,-0.8,0.6
CCCCCCCCNC(=O)c1cnccn1,-4,1.2,x,-4,-1,0.8,-3.5
CC(C)c1ccc(NC2CCCN(C(=O)c3cccs3)C2)cc1 (stereo not given),99*,-1.1,x,4,-1,2.6,0.0
O=C(c1cnccn1)N1CCN(S(=O)(=O)c2ccc3ccccc3c2)CC1,-3,2.1,31%,-2,8,2.5,2.1
COc1ccc(C(=O)N2CCC(C(=O)O)CC2)c2ccccc12,x,1.4,x,-2,-1,0.4,2.0
Cc1cc(C(=O)Cn2nc(C(=O)O)c3ccccc3c2=O)c(C)n1-c1ccc(OC(F)F)cc1,-6,6.2,26%,11,5,1.2,-16
CN1CCN(CCCN(Cc2cccs2)C(=S)Nc2ccc(Cl)cc2)CC1,-36,-2.9,1%,-11,12,4.5,0.4
CS(=O)(=O)N1Cc2ccccc2CC1C(=O)OCC(=O)NCCc1ccc(S(N)(=O)=O)cc1 (stereo not given),10,x,0%,x,12,3.6,1.5
CCn1c(COc2cccc3ccccc23)nnc1SCC(=O)OC1CCCCC1,-5,6.4,0%,5,14,-1.4,1.9
O=C(Nc1nc(-c2ccc(Cl)cc2)cs1)NC1CCCCC1,44,5.0,-2%,2,-3,-1.0,-1.3
CCOc1ccc(N(CC(=O)NCCSCc2ccccc2)S(C)(=O)=O)cc1,-3,-3.1,0%,0,9,0.6,0.6
CCNC(=O)C12CCC(C)(C(=O)O1)C2(C)C (stereo not given),-8,0.5,30%,-1,1,-1.9,-10
Cc1ccc(N=Cc2sc(O)c3ccccc23)cc1,18,2.0,10%,-1,-37,77,-18
CCCCc1ccc(NC(=O)N[C@@H](CC(C)C)C(=O)O)cc1,3,2.2,18%,0,-3,-3.3,4.1
CC(C)(C)NC(=O)C1CN(S(=O)(=O)c2ccccc2)CCN1S(=O)(=O)c1ccccc1 (stereo not given),-1,-0.4,-2%,6,-6,-0.3,0.8
COc1ccc(CCNC(=O)CSc2nc3sc(C(=O)O)c(C)c3c(=O)[nH]2)cc1OC,-11,3.4,x,-11,3,1.1,-1.4
CC(C)NC(=O)c1cccc2c1-c1ccccc1C2=O,19,4.8,1%,0,-6,1.0,2.3
COC(=O)c1cc2occc2n1Cc1nc(-c2ccc(Cl)cc2)oc1C,11,8.1,x,-7,-1,-1.8,-2.2
Cc1nn(CCC#N)c2nc(C(F)(F)F)[nH]c(=O)c12,1,1.9,u,-11,5,-1.0,-1.6

# Structures above containing a COOH group, in the order listed:
SMILES,ALR inh,RanGTP-Impb inh,Vif TR-FRET,Calb FLC,B2AR ag,HNF4A DNA FP,LANA-H2B inh
COc1ccc(C(=O)N2CCC(C(=O)O)CC2)c2ccccc12,x,1.4,x,-2,-1,0.4,2.0
Cc1cc(C(=O)Cn2nc(C(=O)O)c3ccccc3c2=O)c(C)n1-c1ccc(OC(F)F)cc1,-6,6.2,26%,11,5,1.2,-16
CCCCc1ccc(NC(=O)N[C@@H](CC(C)C)C(=O)O)cc1,3,2.2,18%,0,-3,-3.3,4.1
COc1ccc(CCNC(=O)CSc2nc3sc(C(=O)O)c(C)c3c(=O)[nH]2)cc1OC,-11,3.4,x,-11,3,1.1,-1.4

# New compounds follow
SMILES,ALR inh,RanGTP-Impb inh,Vif TR-FRET,Calb FLC,B2AR ag,HNF4A DNA FP,LANA-H2B inh
O=C(Nc1cccc(F)c1)c1cccc2c1C(=O)N(C1CCCCC1)C2,-6,2.7,x,-5,4,2.4,4.6
O/N=C1\CCCC\C1=C/c1ccccc1,x,3.1,5%,5,-1,-1.1,5.4
COC(=O)[C@]1(C)N[C@H](CN(C)C(=O)c2ccc(C)cc2)[C@@H]2C(=O)N(Cc3ccccc3)C(=O)[C@@H]21,0,x,10%,x,6,3.5,x
Cc1[nH]c2ccccc2c1C(=O)NS(=O)(=O)Nc1ccc(F)cc1,-10,-2.2,22%,2,13,4.9,-0.5
Cc1cccnc1NC1CCCCC1,0,0.5,u,0,-11,-4.2,0.5
CCN1CCN(c2nc(Nc3cccc(OC)c3)nc(N)c2[N+](=O)[O-])CC1,x,1.6,-5%,-10,0,-1.5,0.1
COc1cccc2c1CCc1c-2nc2ccccc2c1C(=O)O,-2,2.7,-4%,5,12,-2.6,1.2
CCC(C)(C)n1nnnc1C(c1cccs1)N1CCN(c2nc3ccccc3s2)CC1 (stereo not given),-2,6.4,-1%,-3,-1,-2.4,4.6
COc1ccc2c(=O)cc(-c3ccccc3)n(C)c2c1,9,x,-36%,x,-14,2.4,-2.4
O=C(Nc1ccccc1Cl)NC1(C(=O)NCc2cccnc2)CCCCC1,-1,4.3,x,-2,-1,3.8,0.9
CC1CCCCC1NC(=O)/C(C#N)=C/c1ccccc1F (stereo not given),26,-0.9,-9%,-2,17,5.2,-3.9
O=C1CC(c2ccc3c(c2)OCCO3)Oc2ccccc21 (stereo not given),0,4.5,x,-10,-3,-1.3,-0.5
CCC(=O)Nc1ccc(C(=O)OCc2ccccc2Cl)cc1,-1,-3.5,2%,u,-10,1.9,4.6
Cc1ccc(-n2nnc3c(=O)n(CC(=O)NCc4ccccc4)cnc32)cc1,-4,3.1,10%,-2,-3,5.2,-5.8
O=C(c1sc2cc(F)ccc2c1Cl)N1CCN(c2cccc(Cl)c2)CC1,-2,2.9,-5%,21,-5,2.2,4.5
O=C(CS(=O)c1cccc(C(F)(F)F)c1)Nc1ccccc1Cl (stereo not given),-6,-0.3,-9%,0,-5,-4.1,-1.0
O=C(NCC(c1ccco1)N1CCOCC1)c1c(F)cccc1F (stereo not given),-2,-0.2,4%,2,-3,4.3,2.1
c1ccc2[nH]c(C3CC3)nc2c1,-17,u,5%,1,5,-1.7,-3.9
Cc1ccc(C2=Nc3ccccc3SC(c3cccc([N+](=O)[O-])c3)C2)cc1 (stereo not given),19,-0.9,-5%,-8,4,4.4,4.1
CC1CC(C)(C)NC(=S)N1CC(=O)N(C)Cc1ccccc1 (stereo not given),-2,1.6,x,-3,-7,6.2,3.1
COc1cccc(-c2cc(C(=O)NCCCn3ccnc3)no2)c1,-6,4.1,-4%,3,-9,-2.0,-2.0
CNC(=S)N1CCC(NC(=O)c2ccco2)CC1,1,-3.2,6%,1,x,x,-1.5
O=[N+]([O-])c1ccc(CN2CCN(c3ccccc3)CC2)o1,46,0.9,x,-15,-2,3.3,2.3
COc1ccc(NC(=O)C2CCN(S(=O)(=O)c3cn(C)nc3C)CC2)cc1,-5,2.5,x,0,1,1.4,1.8
COC(=O)c1ccc(C(=O)OC)c(NC(=O)CCC(=O)O)c1,-16,6.1,17%,2,4,-1.1,1.1
COc1ccccc1NC(=S)Nc1ccccc1F,-1,-0.5,29%,-3,8,-0.2,-0.6
Cc1ccc(N/N=C/c2ccc3c(c2)OCCO3)cc1Cl,1,-2.3,x,102*,3,-3.7,-0.6
NC(=O)c1c(NC(=S)Nc2ccccc2)sc2c1CCCC2,-20,1.7,2%,33,-7,10,0.3
c1ccc(CCCNc2ncnc3nc[nH]c23)cc1,0,-4.4,13%,8,-1,-0.8,-3.8
Cc1cc(C)c(S(=O)(=O)Nc2cc(SCC(=O)O)c(O)c3ccccc23)cc1C,57,-2.3,29%,3,x,x,-0.5
CCOC(=O)CNC(=O)C1(c2ccccc2)CCCC1,x,-0.1,28%,-12,7,3.3,-2.0
Cc1cc(C)c(NC(=O)CNC(=O)c2cc([N+](=O)[O-])ccc2N2CCOCC2)c(C)c1,-7,1.1,-2%,-1,-2,-2.1,3.3
CN(C)c1ccc(NC(=O)Nc2ccc3c(c2)nnn3C)cc1,34,0.8,x,5,3,0.4,4.9
COc1ccccc1N(C)S(=O)(=O)c1ccc(Cl)c(C(=O)Nc2cccc(C)n2)c1,0,7.9,-5%,5,0,2.6,3.3
Cc1ccc(N/N=C/c2cccnc2)cc1,101*,-3.8,32%,-12,0,1.4,-1.0
CC1=Nc2nc(N3CCCCC3)c(C#N)c3c4c(nc(c23)N1)N(c1ccc(C(C)C)cc1)C(=O)C4,-12,2.6,5.3µM*,-1,-8,10,1.2
CC(C)NC(=S)Nc1ccc2[nH]c(=O)[nH]c2c1,73,-1.5,-4%,10,5,-3.2,-3.5
COCCN1CCN(C(=O)c2ccc3nc(Cc4ccccc4F)oc3c2)CC1,-1,-2.9,2%,-6,-9,1.1,-4.7
CCc1cccc2c(C(=O)CN3C(=O)N(C)C4(CCCCC4)C3=O)c[nH]c12,-3,x,-6%,x,10,5.3,-0.5
O=C1OCCC1Sc1nc2cc(Cl)ccc2n1Cc1ccccc1 (stereo not given),10,2.1,4%,-12,-10,-2.5,-3.6
Cc1nn(CC(O)c2ccccc2)c(C)c1Br (stereo not given),-27,-0.5,3%,-12,3,-2.9,7.9
C[C@H]1CCC[C@]2(O[C@@H](CCO)C[C@@H](O)[C@@H]2O)O1,-8,1.6,x,-4,0,-3.2,0.1
C=CCN(C(=O)CCC(=O)O)C1CC(=O)N(c2ccc(OC)cc2)C1=O (stereo not given),-3,-0.1,8%,3,-4,5.7,0.9
COC(CNC(=O)Cc1c(C)nc2c(-c3ccccc3)c(C)nn2c1C)OC,-15,1.6,x,1,-12,-0.6,5.0
CCC(=O)OCc1c(C(F)(F)F)nn(C)c1Sc1ccc(F)cc1,-1,0.3,u,0,-95,2.2,1.8
CCN(CC)C1Oc2cc3c(cc2C(c2cc(OC)c(OC)c(OC)c2)C1C)OCO3 (stereo not given),x,x,-1%,x,26,-6.2,x
COCCN(C(=O)COC(=O)/C=C/c1cccs1)c1c(N)n(Cc2ccccc2)c(=O)[nH]c1=O,-29,-0.2,-6%,8,-2,-4.2,-0.7
O=C(CSc1ncn[nH]1)NCCOc1ccccc1,3,-1.4,-4%,1,3,0.2,1.6
COC(=O)c1ccc[n+](CC(=O)c2ccc(Br)cc2)c1,1,5.6,x,1,-3,-1.6,-4.5
CCOC(=O)C1C(c2ccc3c(c2)OCO3)NC(=O)NC1(O)C(F)(F)F (stereo not given),6,-1.9,3%,4,-2,2.0,3.4
COc1ccccc1C(=O)Nc1cccc2nc(C)ccc12,x,-0.7,x,8,-13,-0.4,-0.4
Cc1ccc(N2CC(C(=O)Nc3ccc4c(c3)OCCO4)CC2=O)cc1C (stereo not given),5,3.2,x,3,-1,1.4,3.2
CC(=O)NC1(C(F)(F)F)C(=O)Nc2c1c(=O)[nH]c(=O)n2CCc1ccccc1 (stereo not given),-8,-5.8,22%,-1,6,0.2,-2.3
COc1ccc(CCN2C(=O)CSC2c2ccc(F)cc2)cc1 (stereo not given),52,5.4,-1%,-12,-3,5.6,1.4
CC(=O)c1cccc(NS(=O)(=O)c2csc(C(N)=O)c2)c1,3,-3.0,0%,3,-11,3.3,-0.5
COc1ccc(-c2nnc(SCc3nnc(-c4ccc(Cl)cc4)o3)n2-c2ccccc2)cc1,x,2.3,-4%,20,-9,0.3,1.4
CCS(=O)(=O)c1ccc(N=Nc2ccc(O)c3ncccc23)c(OC)c1,x,-1.0,u,u,-1,4.4,x
CCN(CC(=O)Nc1ccc([N+](=O)[O-])cc1OC)CC(=O)NC(C)(C)C,-25,u,x,0,-1,-1.0,6.6
COCCCNC(=O)Cn1ccc(NC(=O)OCc2ccccc2)nc1=O,-1,x,x,x,5,-0.5,0.0
COc1cc2c(cc1NC(=O)C(C)Sc1ccc(NC(C)=O)cc1)oc1ccccc12 (stereo not given),x,3.3,x,4,8,-3.3,-2.3

# Bioassay records: PubChem, several laboratories
